# Compound activity deposited in PubChem by National Center for Advancing Translational Sciences (NCATS).
# TRPML1 ag: qHTS for Agonists of the Human Mucolipin Transient Receptor Potential 1 (TRPML1); 0.12% of 410,000 active; TRPML1-expressing cells, Ca2+ dye fluorescence, FDSS; host cell line not named in the record; reference of the full effect not given here; Mucolipin-1 (Homo sapiens), Q9GZU1; activation, % (test concentration not listed); in the data active = activation above about 50%; inconclusive = about 30% to 50%; inactive = below about 30%; also: 0% is about no effect; the text of the record puts the active cut at 80%
# Target sequence (Q9GZU1 whole entry, looked up): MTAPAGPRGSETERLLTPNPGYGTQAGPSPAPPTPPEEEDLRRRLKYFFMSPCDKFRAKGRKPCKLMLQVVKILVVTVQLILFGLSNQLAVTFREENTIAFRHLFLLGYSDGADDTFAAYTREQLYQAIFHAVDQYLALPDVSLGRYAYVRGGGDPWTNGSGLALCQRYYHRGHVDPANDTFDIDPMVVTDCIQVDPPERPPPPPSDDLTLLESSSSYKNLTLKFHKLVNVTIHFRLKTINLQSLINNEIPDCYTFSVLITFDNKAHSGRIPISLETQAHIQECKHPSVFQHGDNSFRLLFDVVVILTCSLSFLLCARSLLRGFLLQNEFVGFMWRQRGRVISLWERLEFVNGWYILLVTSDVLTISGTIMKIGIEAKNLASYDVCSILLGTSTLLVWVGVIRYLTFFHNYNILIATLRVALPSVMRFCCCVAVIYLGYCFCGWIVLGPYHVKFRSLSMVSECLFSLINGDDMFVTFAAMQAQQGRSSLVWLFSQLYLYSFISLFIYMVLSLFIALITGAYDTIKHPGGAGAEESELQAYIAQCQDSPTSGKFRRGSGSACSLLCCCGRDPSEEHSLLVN
#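 In this qHTS format, compounds were pin-transferred onto Ca8-dye-loaded TRPML1-DL cells induced with Tet overnight, and intracellular Ca2+ fluorescence was recorded kinetically for 110 s after a 10 s baseline. A subsequent 4uM final 54-4 (EC80) addition followed by a second 110 s read served as the antagonist phase.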
# D2 agonist: Beta-Arrestin HTS for Positive Allosteric Modulators of the Human D2 Dopamine Receptor: Agonists. AID 624465, 2012. DiscoveRx PathHunter D2 beta-arrestin, luminescence, 90 min; 100% = 57 uM dopamine signal. activation, % (concentration not given with the values). 0.084% of 360,000 active. D(2) dopamine receptor (Homo sapiens), P14416; in the data active = activation above about 40%; inconclusive = about 15% to 40%; inactive = below about 15%; also: compound concentration not given in the record; the text of the record calls up to 30% inactive
# Target sequence (P14416 whole entry, looked up): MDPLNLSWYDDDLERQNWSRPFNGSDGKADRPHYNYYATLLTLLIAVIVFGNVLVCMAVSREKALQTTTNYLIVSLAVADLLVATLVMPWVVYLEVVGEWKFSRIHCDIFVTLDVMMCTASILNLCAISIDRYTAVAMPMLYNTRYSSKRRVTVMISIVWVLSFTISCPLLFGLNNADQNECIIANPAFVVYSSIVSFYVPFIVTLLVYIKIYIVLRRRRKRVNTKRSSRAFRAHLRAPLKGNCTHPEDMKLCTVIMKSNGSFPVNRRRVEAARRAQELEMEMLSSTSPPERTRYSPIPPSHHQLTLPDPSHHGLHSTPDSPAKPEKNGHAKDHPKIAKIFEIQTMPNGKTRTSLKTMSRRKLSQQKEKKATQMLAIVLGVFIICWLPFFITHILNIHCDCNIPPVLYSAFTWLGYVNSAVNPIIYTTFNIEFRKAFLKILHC
#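 Agonist mode: compounds alone added to overnight-plated D2 PathHunter cells for 90 min at 37 C, with 57 uM final dopamine (EC100) defining full response. Beta-arrestin recruitment detected by chemiluminescent reagent, read after 1 h at ambient temperature.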
# TRPML1 blocker: qHTS for Inhibitors of the Human Mucolipin Transient Receptor Potential 1 (TRPML1); 0.02% of 390,000 active; activity change, negative = inhibition, % (no concentration beside the values); TRPML1-inducible cells, Ca2+ dye fluorescence, FDSS; hits give low values; inhibition of EC80 agonist-evoked calcium signal; Mucolipin-1 (Homo sapiens), Q9GZU1; in the data active means activity change below about -50%; inconclusive means about -30% to -50%; inactive means above about -30%;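 also: stimulus is agonist 54-4 at its EC80 concentration; % is scaled to controls: 0 for no effect and ±100 for the full control effect; compound concentration not given in the record; the text of the record puts the active cut at -80%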
#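 TRPML1-DL cells, Tet-induced overnight (~16 h, 37 °C) at 1,500 cells/well, were loaded with Ca8 no-wash dye plus quencher for 45-90 min at room temperature. Compounds were pinned during FDSS kinetic reading; agonist 54-4 at EC80 (4 uM final) then added.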
# PINK1 modulator: A Quantitative High throughput Screen to Identify Chemical Modulators of PINK1 Expression; PINK1 immunofluorescence, high-content cytometry, 24 h; Potency, µM (top dose mostly 76.6 µM), for inactives: at the highest dose activation (PINK1 increase), most hits filed as activators; 0.2% of 410,000 active; AID 624263, 2012; active = well fitted activation curve with a large enough effect; inconclusive = small, poorly fitted or top-dose-only effect; inactive = flat fitted curve, though single readings scatter; cell line not stated here;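 also: potency is read from the fitted curve at half-maximal effect; % of control where 0% means no effect; nearly all actives have a fitted effect of over 65% in size; a mitochondrial uncoupler was the plate control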
#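 Decision-based qHTS: stable cells, 24 h exposure to five compound concentrations, CCCP as control. Fixed cells stained for PINK1 plus nuclear, mitochondrial and cell markers, cytometer read.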
# D2 potentiator: Beta-Arrestin HTS for Positive Allosteric Modulators of the Human D2 Dopamine Receptor: Potentiators; 0.23% of 360,000 active; DiscoveRx D2 beta-arrestin cells, luminescence, 90 min; 100% = 57 uM dopamine signal; potentiation, % (test concentration not listed); D(2) dopamine receptor (Homo sapiens), P14416; active = potentiation of 50% or more; inconclusive = 30% to 50%; inactive = 30% or less;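 also: compound concentration not given in the record; tested on top of an EC20 dose of dopamine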
#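 PathHunter D2 cells, attached overnight at 37 deg C, received compound in DMSO plus dopamine at EC20 (50 nM final) for 90 min at 37 deg C. Beta-arrestin recruitment was read as luminescence after 1 h with detection reagent at ambient temperature.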
# Six1-Eya2 blk: qHTS Assay for Inhibitors of the Six1/Eya2 Interaction | activity change, % (no concentration beside the values) | Homeobox protein SIX1 (Homo sapiens) + Protein phosphatase EYA2 (Homo sapiens), … | 0.56% of 360,000 active | AlphaScreen GST-Six1/His-Eya2 binding, biochemical; hits give low values; control for the full effect not named in the record; in the data active = activity change below about -65%; inconclusive = about -30% to -65%; inactive = above about -30%; also: % is scaled to controls: 0 for no effect and ±100 for the full control effect; compound concentration not given in the record
#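 AlphaScreen with GST-Six1 and His-Eya2 (5X mix: 250 nM and 500 nM), glutathione donor and nickel acceptor beads; buffer 50 mM Tris pH 8.0, 300 mM NaCl, 1 mM TCEP; 1 h at 37 C in the dark.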
# Active calls of the source: *; ? = inconclusive; . = not tested or not shown; & = joins results of further samples; [ ] = another dose, or the depositor's remark.
# Values run as follows: TRPML1 ag	D2 agonist	TRPML1 blocker	PINK1 modulator	D2 potentiator	Six1-Eya2 blk
- Cc1[nH]nc(SCC(=O)NCCc2ccccc2)c1[N+](=O)[O-]
→ 0.0	-0.1	3	0.7%	11	4
- CCOc1cc(C(=O)NCCN2CCOCC2)cc(OCC)c1OCC
→ 1.1	-3.4	-3	2.0%	-13	11
- O=C(NCCc1ccccc1)c1ccc(CS(=O)(=O)c2ccc(Br)cc2)o1
→ -0.3&0.1	-3.2	1&2	3.8%&1.3%	-15	0
- O=C(CCCN1C(=O)/C(=C\c2cccs2)SC1=S)Nc1ccc(C(=O)O)cc1
→ -0.3	-3.0	2	-1.2%	-3	-28
- Cc1cc(NC(=O)C2CCN(S(=O)(=O)c3ccc(Br)s3)CC2)ccc1Br
→ 3.1	.	-10	2.4%	.	.
- COc1ccc(N2CCCn3c2nc2c3c(=O)n(Cc3ccc(C)cc3)c(=O)n2C)c(OC)c1
→ 3.3	3.5	-4	2.6%	1	0
- COc1cc2c(cc1OC)C(c1ccccc1O)N(C1CC(=O)N(c3ccccc3)C1=O)CC2 (stereo not given)
→ -0.7	-0.4	-4	?	-13	-9
- Nc1nnc(SCc2ccc(F)cc2Cl)s1
→ 1.0	0.7	7	?	-14	7
- CCCOC(=O)C1[C@H]2C(=O)N(C(C)c3ccc(OC)cc3)C[C@]23C=C[C@H]1O3 (stereo not given in full)
→ -1.0	1.6	15	0.6%	-3	7
- CCOC(=O)N1CCN(Cc2nc3cc(NC(=O)CC(C)C)ccc3n2CC)CC1
→ -0.2	2.5	3	11%	-4	-3
- CCOc1ccccc1OCCCC(=O)N(CC)CC(=O)Nc1ccc(NC(C)=O)cc1
→ 1.2	-0.5	-2	-0.9%	3	-2
- O=C(CCN1CCN(c2ccccc2)CC1)Nc1ccc(OCc2ccccc2)cc1
→ -0.5	11	1	1.5%	-10	4
- Cc1cn2c(=O)cc(COc3ccc(C(C)(C)C)cc3)nc2s1
→ 1.1	.	-10	-0.6%	.	.
- O=C(CN1CCN(C(=O)c2ccco2)CC1)Nc1cc(Cl)ccc1Cl
→ 3.2	3.8	7	-4.3%	-17	-1
- COCCNC(=S)NC1CC2CCCC(C1)N2Cc1cccs1 (stereo not given)
→ -0.3	-2.2	-4	.	-26	-11
- COc1ccc(/C=C/C(=O)Nc2cc(C(F)(F)F)ccc2Cl)cc1
→ 4.0	4.3	25	2.9%[38.3 µM]	-26	10
- COCCn1c(-c2ccc(OC)c(OC)c2)nc2ccccc21
→ -0.5	-2.2	-16	-1.2%	0	-1
- COc1ccc(CNC(=O)C2=Cc3cccc(OC)c3OC2)cc1OC
→ -1.0	.	11	0.5%	.	.
- CC(C(=O)Nc1ccccc1-c1ccccc1)N1CCOCC1 (stereo not given)
→ 1.2	-2.1	34	4.5%[38.3 µM]	-8	3
- Cc1cc(NC(=O)c2cc3ccccc3oc2=O)no1
→ 0.3	-2.5	16	8.6%[38.3 µM]	-2	0
- CCCNC(=O)c1cc(S(=O)(=O)N2CCc3ccccc32)ccc1F
→ -0.2	-3.2	-14	14%[38.3 µM]	-3	4
- CCN1CCN(C(CNS(=O)(=O)c2ccc(Cl)cc2)c2cccnc2)CC1 (stereo not given)
→ 0.6	-1.2	-10	2.0%	-18	2
- CC/C(=C/c1sc2ccc(C)cc2[n+]1CCO)SC
→ 0.3	-1.2	-9	0.4%	-6	-2
- Brc1ccc(/C=N/n2cnnc2)s1
→ -0.4	-0.5	-3	-2.2%	1	-23
- [O-]/C(=C(\C(=S)Nc1cccc2ccccc12)[n+]1ccccc1)c1ccc(OC(F)F)cc1
→ -0.2	1.0	-2	0.4%	-8	-13
- Cc1ccc(P(=O)(O)c2ccc(C)cc2)cc1
→ -0.1	-2.2	-11	0.5%	14	-13
- CCNc1nc(NC(C)C)nc(NS(=O)(=O)c2ccc(N)cc2)n1
→ 0.2	2.1	11	-3.8%	1	3
- O=C(NCC(=O)N(c1cccc(F)c1)C(C(=O)NC1CCCC1)c1ccco1)c1ccco1 (stereo not given)
→ 0.3	-1.1	6	-1.3%	-3	13
- COc1cc([C@@H]2[C@H]3CN(C)CC=C3C(C#N)=C(N)C2(C#N)C#N)cc2c1OCO2
→ 2.4&2.7	-0.9&-3.4	9&-4	18µM*	-39&-26	-9&-11
- O=C(Nc1ccccc1)Nc1cccc(-c2cn3cccnc3n2)c1
→ -0.5	-8.3	-9	6.3%	5	?
- Cc1ccc(S(=O)(=O)N(C)c2cc(S(=O)(=O)N3CCOCC3)c(C)cc2C)cc1
→ -0.4	0.1	4	-0.2%	-3	1
- COc1ccc(S(=O)(=O)Nc2ccc(Cl)cn2)c(C)c1C
→ 1.1	-1.4	-15	10%[38.3 µM]	-1	2
- CN(C)C(=S)Oc1ccccc1-c1ccccc1OC(=S)N(C)C
→ 1.1	-1.8	18	0.2%	2	2
- CCOC(=O)C1CCCN(C(=O)Cn2ncc3c4ccccc4n(C)c3c2=O)C1 (stereo not given)
→ 3.0	.	-3	0.2%	.	.
- CCCc1cc(-c2ccc3c(c2)COc2c4ccccc4nn2-3)on1
→ 0.3	-0.5	2	8.9%	-6	2
- Cc1ccc(/C(=N\O)c2oc3c(C)c4oc(=O)cc(C)c4cc3c2C)cc1
→ 2.3	0.6	75	?	-12	4
- CCc1ccc(CNC(=O)CSc2cc(=O)n(C)c3ccc(Cl)cc23)cc1
→ -0.8	.	-2	3.9%	.	.
- O=C(Nc1cc(Cl)ccc1N1CCCC1)C1=NN(c2ccccc2)C(=O)CC1
→ 1.0	2.7	19	0.6%	-14	0
- CC(C)CC(=O)Nc1c2c(nn1-c1cccc(Cl)c1)CS(=O)(=O)C2
→ .	2.6	.	0.0%	-11	2
- COc1ccc(OC)c(NC(=O)N2CCN(Cc3nc4ccc(C)cc4o3)CC2)c1
→ -1.1	.	-11	0.0%	.	.
- Cc1ccc(CN2C(=O)CCC2C(=O)NCCN2CCN(c3cccc(Cl)c3)CC2)cc1 (stereo not given)
→ 0.8	0.0	18	0.2%	-5	-4
- COc1cc2oc(-c3ccc(O)cc3)cc(=O)c2c(O)c1OC
→ 0.9	0.4	-15	-0.8%	6	-13
- Cc1ccc(N(C)C(=O)Cn2cc(S(=O)(=O)N3CCCC3)c(S(=O)(=O)N3CCCC3)c2)cc1
→ 0.0	.	52	1.1%	.	.
- Cc1ccsc1/C=C1/SC(N2CC(C)OC(C)C2)=NC1=O (stereo not given)
→ -1.3	3.5	-2	-1.7%	1	3
- COc1cc(NC(=O)C2CCCC2)c(OC)cc1Cl
→ 0.7	-4.0	-4	1.6%	-7	3
- O=C(c1cccc(F)c1)n1nnc2ccccc21
→ -0.4	1.4	-8	2.8%	-1	2
- CC(=O)c1cccc(NC(=S)N2CCc3ccccc32)c1
→ 1.3	-6.0	76	-1.1%	-30	0
- CC1CCCN(S(=O)(=O)c2ccc(NC(=O)C3CCN(C(=O)c4ccco4)CC3)cc2)C1 (stereo not given)
→ 1.1	6.3	10	-0.6%	-4	-11
- COc1cc(/C=N/N=C2/SCC(=O)N2c2ccc(O)cc2)ccc1O
→ 0.5	-1.0	-11	23%	-9	-3
- O=C(CC1C[C@H](C(=O)N2CCOCC2)[C@@]2(CCC3CCCC3)c3[nH]c4ccccc4c3CCN2C1=O)NCc1ccco1 (stereo not given in full)
→ -1.0	0.1	2	1.0%	.	6

# New compounds follow:
# Values run as follows: TRPML1 ag	D2 agonist	TRPML1 blocker	PINK1 modulator	D2 potentiator	Six1-Eya2 blk
- CCCCn1c(N)c(N(CCOC)C(=O)c2ccc(Br)o2)c(=O)[nH]c1=O
→ 0.5	-2.7	-8	-5.1%	-11	7
- Cc1ccc(/C=C/c2onc(C)c2S(=O)(=O)N2CCC(C(=O)N3CCCCC3)CC2)cc1
→ 1.0	-4.4	7	0.9%	0	-1
- O=C(Nc1cccs1)Nc1nnc([C@@H]2C[C@H](O)[C@@H](CO)O2)s1
→ 0.1	-2.1	.	1.2%	-8	-6
- Cc1ccc2cc(CN(CCN(C)C)C(=O)Nc3ccc(Cl)cc3)c(=O)[nH]c2c1
→ 0.4	-2.6	5	4.2%	-11	-1
- CC(C)=CCC/C(C)=C/CNC(=O)C[C@H]1C[C@H](C(=O)N2CCCCC2)[C@@]2(C)c3[nH]c4cc(-c5ccco5)ccc4c3CCN2C1=O
→ 0.2	-1.1	18	7.9%	-8	-21
- O=C(Nc1ccccc1)c1cccc2c(Br)cccc12
→ .	-0.6	.	11%	21	5
- CCN(CC)C(=O)Cn1cc(S(=O)(=O)CC(=O)NCc2ccccc2)c2ccccc21
→ -0.7	1.7	10	-1.4%	-15	2
- C[n+]1ccccc1/C=C/c1c(F)cccc1F
→ 0.4	2.8	-8	?	-9	4
- COc1cccc(-n2c(SC)nnc2-c2c[nH]c3ccccc23)c1
→ -0.3	4.5	-2	0.6%	3	-6
- COc1ccc(Br)cc1CNC(=O)C1COc2ccccc2C1 (stereo not given)
→ 0.1	.	-7	1.2%	.	.

# Shown as a hit in PINK1 modulator (from the list above):
Compound,D2 agonist,TRPML1 blocker,PINK1 modulator,D2 potentiator,Six1-Eya2 blk
COc1cc([C@@H]2[C@H]3CN(C)CC=C3C(C#N)=C(N)C2(C#N)C#N)cc2c1OCO2,-0.9&-3.4,9&-4,18µM*,-39&-26,-9&-11

# An excerpt from above in order of the D2 potentiator value, largest number first.
structure | D2 agonist | TRPML1 blocker | PINK1 modulator | D2 potentiator | Six1-Eya2 blk
CCCNC(=O)c1cc(S(=O)(=O)N2CCc3ccccc32)ccc1F | -3.2 | -14 | 14%[38.3 µM] | -3 | 4
CCOc1cc(C(=O)NCCN2CCOCC2)cc(OCC)c1OCC | -3.4 | -3 | 2.0% | -13 | 11
CCN(CC)C(=O)Cn1cc(S(=O)(=O)CC(=O)NCc2ccccc2)c2ccccc21 | 1.7 | 10 | -1.4% | -15 | 2

# New compounds follow
# Values run as follows: TRPML1 ag	D2 agonist	TRPML1 blocker	PINK1 modulator	D2 potentiator	Six1-Eya2 blk
- CC(=O)c1ccc(OC(=O)N2CCOCC2)cc1
→ 0.4	-0.2	2	0.3%	-3	-1
- COc1ccc([N+](=O)[O-])cc1NC(=O)CS(=O)(=O)c1ccc(C)cc1
→ 1.7	2.4	-7	4.8%	-10	45
- Cc1ccc(CNC(=O)CN2C(=O)C3CCCCN3c3ccc(C(=O)N(C)C)cc32)cc1 (stereo not given)
→ -0.7	.	5	7.1%	.	.
- O=C(O)CSCc1nc2cccnc2n1C1CCCCC1
→ 0.1	-4.9	-18	3.5%	2	?
- COc1ccc(CNC(=O)COC(=O)c2ccccc2OCC(=O)Nc2ccc(SC(F)F)cc2)cc1
→ 0.1	1.0	-9	0.3%	0	5
